Screens deposited in PubChem BioAssay by National Center for Advancing Translational Sciences (NCATS).
VACV mCherry inh: inhibitors of vaccinia virus infection (mCherry reporter signal); AID 720579; Potency, µM (highest dose often 36.5 µM), without a hit: top-dose activity change, negative = inhibition, actives largely listed as inhibitors; Vaccinia virus mCherry reporter infection, fluorescence; about a quarter of the inactives have no number; 310,000 tested, 0.63% active; active = well fitted inhibition curve with a large enough effect; inconclusive = small, poorly fitted or top-dose-only effect; inactive = no such curve, though single readings can be large or run the other way; tested in A549 cells; note: nearly all actives have a fitted effect of over 35% in size; inactives centre near -10
VACV Venus inh: vaccinia inhibition (Venus reporter). Potency, µM (doses to about 36.5 µM), for the others: at the highest dose activity change, negative = inhibition, actives largely listed as inhibitors. AID 720580. Vaccinia virus Venus reporter expression, fluorescence. 330,000 tested, 0.46% active; active means well fitted inhibition curve with a large enough effect; inconclusive means small, poorly fitted or top-dose-only effect; inactive means no such curve, though single readings can be large or run the other way; tested in A549 cells; note: nearly all actives have a fitted effect of over 30% in size; inactives centre near -10
Numbers without * were called inactive; i = inactive; ? = inconclusive; · = no result given; [ ] = remark or other dose. % is set by controls: 0 for no effect and ±100 for the full control effect; potency is the fitted concentration of half-maximal effect.

SMILES	VACV mCherry inh	VACV Venus inh
N#Cc1c(-c2ccccc2)cc(-c2ccccc2)nc1SCC(O)CS(=O)(=O)Cc1ccccc1 (configuration not stated)	-17.3%	-10.4%
Cc1csc(NC(=O)CCC(=O)N(CC(=O)NC2CCCCC2)c2ccccc2)n1	-10.6%	5.1%
CNC[C@@H]1Oc2ccc(NC(=O)Nc3c(C)noc3C)cc2CC(=O)N([C@H](C)CO)C[C@H]1C	-21.4%	-1.2%
Cn1c(=O)c2c(nc(NNC(=O)C(F)(F)F)n2C)n(C)c1=O	-9.7%	0.6%
C#CCOCCOCCOCCNc1nc(N2CCN(C(=O)Cn3cc(CCCCN)nn3)CC2)nc(N2CCN(C(=O)Cn3cc(CC(C)O)nn3)CC2)n1 (configuration not stated)	-16.0%	-11.1%
O=C(CP(=O)(c1ccccc1)c1ccccc1)Nc1cccc(CP(=O)(c2ccccc2)c2ccccc2)c1	?	?
CCCNC(=O)C1(C)CCCN(C(=O)c2ccc3snnc3c2)C1 (configuration not stated)	-16.9%	-8.8%
COCCCN=Cc1c(C)[nH]n(-c2ccc(Br)c(C)c2)c1=O	-1.6%	-12.7%
O=C1C2C3CCC(C3)C2C(=O)N1Cc1ccco1 (configuration not stated)	-12.3%	5.9%
COc1ccc(Cl)cc1NC(=O)c1nn(C)c2c1CS(=O)(=O)c1ccccc1-2	-5.5%	-2.2%
CC(=O)Nc1ccc(NC(=O)C(NS(=O)(=O)c2ccc(Br)s2)c2ccccc2)cc1 (configuration not stated)	-7.7%	-6.0%
CN1C(=O)C(C)(C)c2cc(S(=O)(=O)N(C)Cc3ccccc3)ccc21	i	-7.3%
O=C1CC(c2ccccc2)CN1 (configuration not stated)	-11.3%	-6.5%
CCc1cccc2c(C(=O)C(NC(C)CC)c3ccccc3)c[nH]c12 (configuration not stated)	?	-3.9%
CCOC(=O)N1CCC(N2Cc3cccc(C(=O)NCC4CCN(CC(C)C)C4)c3C2=O)CC1 (configuration not stated)	i	-0.6%
CC1=NN(C(=O)c2c(Br)c(C)nn2C)C(O)(C(F)(F)F)C1 (configuration not stated)	i	-16.7%
NC(=O)C1CC12c1ccccc1-c1ccccc12 (configuration not stated)	-11.9%	-12.4%
O=C(NC(=S)NNC(=O)c1ccc(Cl)cc1Cl)c1cccnc1	-19.7%	-13.8%
O=S(=O)(CC(O)(c1ccccc1)c1ccccc1)CC(O)(c1ccccc1)c1ccccc1	?	-17.3%
CCN(CC)CCNC(=O)c1c(O)c2ccccc2n(Cc2ccccc2)c1=O	?	-29.7%
CCSc1ncc(Cl)c(C(=O)Nc2sc3c(c2C(=O)OC)CCCC3)n1	26.0%	4.8%
O=C(CN1C(=O)NC2(CCCC2)C1=O)N1CCN(S(=O)(=O)c2cccc(F)c2)CC1	-16.0%	-9.0%
Cc1ccc(CCc2nnc(SCC(=O)Nc3cccc(Cl)c3)n2-c2ccccc2)o1	i	?
COc1ccc(S(=O)(=O)c2cn(C)c3cc(N4CCCCC4)c(F)cc3c2=O)cc1	-11.0%	-15.8%

Molecules from the list above that have bromine:
SMILES	VACV mCherry inh	VACV Venus inh
COCCCN=Cc1c(C)[nH]n(-c2ccc(Br)c(C)c2)c1=O	-1.6%	-12.7%
CC(=O)Nc1ccc(NC(=O)C(NS(=O)(=O)c2ccc(Br)s2)c2ccccc2)cc1 (configuration not stated)	-7.7%	-6.0%
CC1=NN(C(=O)c2c(Br)c(C)nn2C)C(O)(C(F)(F)F)C1 (configuration not stated)	i	-16.7%

Continued:
SMILES	VACV mCherry inh	VACV Venus inh
COc1ccc(C(=O)N/N=C/c2ccc3cccc(O)c3n2)cc1	-21.4%	-17.8%
CCc1cc(CNC(=O)CC2C(=O)NCCN2Cc2ccccc2C(F)(F)F)on1 (configuration not stated)	?	-13.2%
OC(c1cccc(Cl)c1)c1nc(-c2ccc(Cl)cc2)cs1 (configuration not stated)	-4.1%	-1.3%
O=C(NCc1nnnn1-c1ccc(F)cc1)c1cc2ccccc2o1	i	-13.2%
COc1ccc(Nc2nc(CC(C)=O)ns2)cc1OC	i[1.46 µM]	-8.8%
O=C(Nc1nccs1)C1CCN(S(=O)(=O)c2cccs2)CC1	-23.9%	-13.5%
CCN(CC)CCNc1nc2c(c(=O)[nH]c(=O)n2C)n1CC(O)COc1ccc(Cl)cc1Cl (configuration not stated)	·	-19.8%
O=[N+]([O-])c1cc(S(=O)(=O)N2CCCC2)ccc1SCCO	?	-17.0%
CCOC(=O)c1c(NC(=O)Nc2ccccc2)sc(C)c1C	21.8%	-16.2%
O=C1C=C(Nc2ccccc2)C(=O)c2ccccc21	-25.3%	?
COC(=O)c1ccc(COc2ccccc2/C=C(\C#N)C(=O)Nc2ccc(C)cc2)cc1	-18.0%	-6.8%
O=C(Nc1ccccc1C(=O)Nc1nccs1)c1ccccc1	i	-17.0%
Cn1c(=O)c2c(nc(Br)n2CCSc2ncccn2)n(C)c1=O	-7.5%	-12.8%
C=CCNCCCCOc1ccccc1-c1ccccc1	-8.9%	-20.6%
COc1ccc(C2CC(=O)N(c3ccccc3)C3=C2C(=O)CCC3)cc1 (configuration not stated)	-8.8%	-8.1%
O=C(CN1Cc2ccccc2C1=O)Nc1cc(F)ccc1F	-1.0%	-3.5%
Cc1cccc(NC(=O)c2cc3c(C)nn(-c4ccccc4)c3s2)c1	-14.9%	-8.4%
C[C@@H]1NC(=O)c2cc([N+](=O)[O-])cc(I)c2OCC[C@@H](C(=O)NC(CC(=O)O)C(N)=O)NC(=O)[C@H](CCC(=O)O)NC1=O (some centres not stated)	i	-4.6%
O=c1cc(CN2CCN(c3ccccc3)CC2)c2cc(O)c(-c3ccccc3)cc2o1	·	-17.1%
N/C(=N\OC(=O)c1ccc2c(c1)OCO2)c1cccc(Br)c1	-6.9%	3.7%
COc1cc(C(C)=O)ccc1COc1ccc(C(=O)OCC(=O)NC2CCS(=O)(=O)C2)cc1OC (configuration not stated)	i	-24.8%
Cc1ccc(SCc2nc3ncccn3c2Br)cc1	i	-12.8%
COc1ccc(C)cc1Nc1nc(N)c2ccccc2n1	?	-18.3%
COc1ccc(S(=O)(=O)N(C)C)cc1NCC(=O)Nc1cccc(C#N)c1	-10.7%	10.8%
CSc1nc2c(cc1C#N)CCCCC2	-11.6%	-9.1%
CC1=C(C(=O)OCc2ccccc2)C(c2ccccc2OS(=O)(=O)c2ccc(C)cc2)NC(=O)N1CCCC(=O)O (configuration not stated)	-7.3%	-9.3%
Cc1nc(Nc2ccc3c(c2)OCCO3)c2nnn(Cc3ccccc3Cl)c2n1	-17.2%	-26.2%
CCOC(=O)c1c(NC(=O)CSc2ncnc3[nH]ncc23)sc2c1CCC(C)C2 (configuration not stated)	?	-9.9%
CN1CCN(c2nc(-c3cccs3)cs2)CC1	-6.3%	-3.3%
COc1ccc(NC(=O)CCNS(=O)(=O)c2ccc3c(c2)CCN3C(=O)C2CC2)cc1Cl	-23.0%	-10.7%
CCN(CC(=O)Nc1c(F)cccc1F)C(=O)c1cc(S(=O)(=O)NCc2ccccc2)ccc1C	i	-17.2%
COc1ccc(-c2nc3c(c4nnc(SC(C)C(=O)Nc5ccccc5)n24)COC(C)(C)C3)cc1 (configuration not stated)	i	-18.5%
Cc1ccc(OCC(=O)NCc2ccco2)cc1C	-14.4%	-9.2%
N#Cc1c(-n2ncnc2-c2cccc(Br)c2)sc2c1CCCCC2	-5.7%	-0.2%
CCOc1ccc(CC(=O)Nc2c(C(=O)Nc3ccc(OC)cc3OC)oc3ccccc23)cc1	i	-21.4%
CC1CCc2nn(CC(=O)NCc3ccc(F)cc3)cc2C1 (configuration not stated)	-10.7%	5.1%
O=C(Nc1cccc(C(=O)N2CCCCC2)c1)C1CCCCC1	-6.0%	-0.9%
NC(=O)c1ccsc1NC(=O)COC(=O)Cc1c[nH]c2ccccc12	-10.5%	-22.3%
O=[N+]([O-])c1ccc(NN=Cc2ccc(O)cc2O)nc1	1.41µM*	?
COc1ccc2nc(NC(=O)c3ccc(NS(=O)(=O)c4cccs4)cc3)sc2c1	?	-26.6%
COc1ccc(C(CNC(=O)c2cccc(NS(=O)(=O)c3ccc(C)c(F)c3)c2)N2CCCC2)cc1 (configuration not stated)	-15.3%	0.2%
COc1ccc(OC)c(Cc2nnc(CCC(=O)NCc3ccsc3)o2)c1	-0.2%	-14.0%
COc1ccc(-c2nn(-c3ccc(C)cc3)c3c2cnc2ccc(C)cc23)cc1OC	-28.7%	-23.9%
CN(CC(=O)Nc1ccc(N2CCOCC2)cc1)Cc1cc(=O)n2ccsc2n1	i	-15.3%
Cc1ccc(-n2c(=O)c3ccc(C(=O)NCc4ccccc4Cl)cc3n(CC(N)=O)c2=O)cc1	5.1%	0.0%
CN(C(=O)c1ccc2c(c1)N(Cc1ccccc1F)C(=O)c1ccccc1S2)C1CCCCC1	-6.0%	-2.6%
Cc1cccc(N2CCN(C(=O)c3ccc(CNc4c(N5CCC(C)CC5)c(=O)c4=O)cc3)CC2)c1C	-12.8%	?
O=C(CN(Cc1ccc(Cl)cc1)C(=O)CN1C(=O)COc2ccccc21)NC1CCCC1	i	-8.7%
Cc1ccc(-c2nnc(CSc3nncn3N)o2)cc1	-15.0%	-4.1%
COC(=O)c1scc(C)c1NC(=O)C(Cl)c1ccccc1 (configuration not stated)	i	-9.6%
Clc1cccc(N2CCN(Cc3nnc(-c4ccccc4)o3)CC2)c1	i	-24.0%
Cc1nc(N2CCCC2)ncc1C(=O)NCc1ccccc1Cl	-5.6%	1.5%
Nc1c(Cl)cc(N=Nc2ccccc2)cc1Cl	?	0.0%
CCOC(=O)C1(C)NC(c2ccco2)C2C(=O)N(c3ccccc3)C(=O)C21 (configuration not stated)	-7.6%	3.0%
O=C(Nc1cccc(C(F)(F)F)c1)c1csc([C@H]2C[C@H](O)[C@@H](CO)O2)n1	-18.7%	-20.9%
O=C(O)c1cc(NC(=O)c2cccc(N3C(=O)c4ccccc4C3=O)c2)cc(C(=O)O)c1	-1.7%	-11.1%
CCCCNC(=S)NNC(=O)c1ccc2c(c1)OCO2	i	-10.6%
CN(C)c1ccc(/C=N/NC(=O)CNC(=O)/C=C/c2ccco2)cc1	-7.1%	-6.6%
CC(C)Cn1cnc2c1c(=O)n(CC(=O)NC(=O)NC(C)(C)C)c(=O)n2Cc1ccccc1	-6.2%	-8.7%
COc1ccc2c(CNCc3cccs3)c(C(=O)O)n(Cc3ccccc3)c2c1	-3.3%	-1.5%
Continued.
SMILES	VACV mCherry inh	VACV Venus inh
CC1CN(C(=O)c2ccccc2)OC(c2ccc3c(c2)OCO3)O1 (configuration not stated)	i	0.0%
Cc1ccc(C(C)C)c(OCC(=O)OCC(=O)NC2CC2)c1	i	2.2%
COC(=O)c1c(C)oc2c1cc(NS(=O)(=O)c1cccs1)c1ccccc12	-29.8%	-14.2%
O=C(c1cc(-c2ccccc2)nc2ccccc12)N1CCCc2ccccc21	-9.1%	-11.5%
CCn1c(CC(=O)Nc2ccccc2F)nnc1SCC(=O)N1CCOCC1	-6.6%	-17.1%
CN(CC(=O)Nc1ccccc1Cl)C(=O)COC(=O)CSc1ccc(F)cc1	-16.1%	-4.9%
COc1cc2c(C#N)c(N3CCOCC3)nc(N)c2c(N)n1	·	?
CC(C)(C)NC(=O)NC(=O)CN1CCC(Cc2ccccc2)CC1	-20.0%	-18.0%
Nc1nc2c(ncn2[C@@H]2O[C@H](CNCc3cnc(N4CCOCC4)s3)[C@@H](O)[C@H]2O)c(=O)[nH]1	7.0%	-9.7%
CCN(CC)C(=O)c1cccc(-c2csc(C(O)c3ccccc3)n2)c1 (configuration not stated)	i	-14.6%
O=C(O)CCC(=O)NCC(=O)c1ccc(F)cc1	-15.1%	-12.3%
COc1cc(/C=N/N2CCN(Cc3ccccc3)CC2)cc(OC)c1OC(C)=O	-8.0%	-5.5%
N#Cc1ccccc1S(=O)(=O)N1CCN(C(=O)C2COc3ccccc3O2)CC1 (configuration not stated)	i	-14.8%
CN(C)CCn1c(=O)n(Cc2ccccc2)c(=O)c2c3c(sc21)CCCCC3	i	-19.5%
CC(C)N(C(=O)CC1ON(C)C(=O)N1c1ccc(Cl)cc1)C(C)C (configuration not stated)	-10.7%	0.2%
Cc1nnc(C)n1/N=C/C=C/c1ccccc1	·	-0.4%
CCCS(=O)(=O)C(=C1NCCO1)S(=O)(=O)CCC	·	-7.0%
CCNC(=S)N1CCN(CCN=CC2=C(O)CC(c3ccco3)CC2=O)CC1 (configuration not stated)	·	-22.3%
O=C(Nc1ccccc1Cl)c1ccc2c(c1)N(Cc1ccc(F)cc1)C(=O)CS2=O (configuration not stated)	-1.0%	1.7%
CCNC(=O)NC(=O)COC(=O)c1ccccc1SCC(=O)NC(=O)NCC	-14.9%	-11.8%
COc1ccc(-n2nnc(C(=O)Nc3ccccc3F)c2N)cc1	-1.8%	7.8%
O=C(CN1C(=O)NC2(CCCc3ccccc32)C1=O)c1ccc(Br)cc1 (configuration not stated)	-1.5%	-3.7%
CCOC(=O)[C@@H]1[C@H]2COc3cc(OC)ccc3[C@@H]2N2C(=O)N(c3ccc(C)cc3)C(=O)[C@]12C	i	-19.9%

4 neighbouring records already listed:
SMILES	VACV mCherry inh	VACV Venus inh
N#Cc1c(-c2ccccc2)cc(-c2ccccc2)nc1SCC(O)CS(=O)(=O)Cc1ccccc1 (configuration not stated)	-17.3%	-10.4%
Cc1csc(NC(=O)CCC(=O)N(CC(=O)NC2CCCCC2)c2ccccc2)n1	-10.6%	5.1%
CNC[C@@H]1Oc2ccc(NC(=O)Nc3c(C)noc3C)cc2CC(=O)N([C@H](C)CO)C[C@H]1C	-21.4%	-1.2%
Cn1c(=O)c2c(nc(NNC(=O)C(F)(F)F)n2C)n(C)c1=O	-9.7%	0.6%
